Bioassay records as filed in PubChem.
Vif A3G – inhibitors of Vif binding to APOBEC3G peptide, primary screen, biochemical, TR-FRET, GST-Vif 1-94, biotin-A3G peptide, dose response retest (AID 1117319); TR-FRET GST-Vif / biotin-A3G peptide binding; higher % means a stronger effect; test concentration not given here; strong numbers were not always called active; inhibition, %; hits with a dose series show IC50 in µM; 0.57% of 260,000 active;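 active means above the screen mean plus three standard deviations and confirmed in dose response; inconclusive means results disagree or hit not tested in dose response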;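 further: Vif residues 1-94 fused to GST binding biotinylated APOBEC3G peptide 110-148; 0% = full assay without inhibitor and 100% = GST in place of GST-Vif; retest series ran down from 100 µM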
LANA-H2A inh – blocks KSHV LANA binding to histone H2A/H2B; Q9QR71; cell-free LANA-H2A/H2B peptide, fluorescence polarization; inhibition, % (concentration not given with the values); 0.6% of 320,000 active; in the data active means inhibition mostly above about 10%, no sharp cut-off; inactive means mostly below about 6.7%;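 further: stock transfer was 7.5 nL into about 10 µL; 0% = median of vehicle wells and 100% = median of positive control wells; one replicate is shown; the record names a cut of 25% in any replicate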
ALR inh – inhibitors of human sulfhydryl oxidase ALR; P55789; purified ALR, DTT oxidation, H2O2 HRP-luminol luminescence; inhibition, % (test concentration not listed); 3.8% of 290,000 active; AID 485317;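 active means mean and each replicate at 75% or more; inconclusive means only one of the two met; inactive means neither met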;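 further: stock transfer was 7.5 nL into about 7.5 µL; 0% = neutral wells and 100% = wells with inactivated enzyme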
Beta2AR agonist – agonists of human beta-2 adrenergic receptor inducing internalization | Am2.2-beta2AR cells, FAP receptor internalization, flow cytometry; reference of the scale not given here | P07550 | response, % (no concentration beside the values) | 0.43% of 340,000 active;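 active means response above a set limit, near 3 SD of response in nonfluorescent compounds, cut at about 42% in these data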;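 further: stock transfer was 100 nL into about 11 µL; a reference agonist was the positive control; negative values mostly stem from fluorescent compounds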
Calb FLC – affects C. albicans growth with fluconazole | C. albicans CaCi-2 (fluconazole-resistant clinical isolate) + fluconazole, Alamar Blue growth, 48 h | growth inhibition, % (concentration not given with the values) | 0.57% of 300,000 active | AID 1979;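 active means most replicates above 75%; inconclusive means exactly half above 75%; inactive means most below 75%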;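 further: all wells also contain fluconazole at 8 µg/ml as a sub-toxic cotreatment; 0% = median of DMSO wells and 100% = median of geldanamycin control wells; wells of about 8 µL received 7.5 nL stock; the first replicate is given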
HNF4A DNA FP – change in binding of human HNF4 alpha to DNA; P41235; HNF4a-FITC DNA binding, fluorescence polarization, 1 h; activity change, % at 10 µM; 0.3% of 360,000 active; AID 1224865; in the data active means activity change above about 30%, passing the limit was not always enough;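 further: controls were the assay level and a saturating level of protein; the project sought stronger binding though the title names inhibitors; some compounds called inactive have numbers as strong as hits; positive values seem to mean higher polarization but the record does not say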
RanGTP-Impb inh – inhibitors of RanGTP-importin-beta interaction, primary screen, biochemical, FRET, CFP-Ran, YFP-importin-beta, homogeneous; inhibition, % (test concentration not listed); AID 2216; 1.1% of 300,000 active; cell-free CFP-Ran/YFP-importin-beta FRET ratio;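 active means most replicates above 15%; inconclusive means exactly half above 15%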;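 further: 0% = DMSO wells and 100% = Ran loaded with GDP instead of GTP; wells of about 40 µL received 100 nL stock; the first replicate is given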
An asterisk follows results filed as active; ? = inconclusive; . = not tested or not shown.

SMILES	Vif A3G	LANA-H2A inh	ALR inh	Beta2AR agonist	Calb FLC	HNF4A DNA FP	RanGTP-Impb inh
O=C(COC(=O)CCCOc1ccccc1)NNC(=O)c1ccc([N+](=O)[O-])cc1	0%	8.0	-7	-3	-19	2.4	2.6
O=C(c1cc2ccccc2oc1=O)N1CCN(Cc2ccc3c(c2)OCO3)CC1	4%	6.3	-2	-7	1	2.1	0.4
CC1(C)Cc2nc3oc4c(NCc5ccccc5)ncnc4c3cc2CO1	-4%	-12	2	-2	-9	-0.3	1.8
COCCNC(=O)C(C)OC(=O)c1cc2sccc2n1C (stereo not given)	7%	0.1	.	3	-1	-0.3	7.4
Cc1nnc(SCC(=O)Nc2nonc2C)s1	.	-1.5	-5	-2	-14	0.0	1.3
COCCNC(=O)c1ccc2nc(Cc3ccc(OC)c(OC)c3)oc2c1	.	-5.3	-3	-7	-5	1.0	-2.4
COc1ccccc1OCC(=O)N1CCN(C(=O)c2ccco2)CC1	.	0.0	-2	-3	-4	-2.1	4.5
COC(=O)C(C)NC(=O)CNS(=O)(=O)c1ccc(F)cc1 (stereo not given)	-10%	3.0	-6	4	-5	-1.8	-2.9
Nc1ccc(-c2nnnn2-c2ccc(N)cc2)cc1	2%	-0.2	.	25	8	2.5	-0.6
O=C(CSc1ccc(Cl)cc1)NC(=O)NC1CCCC1	0%	.	.	-3	.	-0.6	.
O=C(CSc1nccc(-c2cccs2)n1)Nc1ccc(F)c(Cl)c1	-4%	0.3	-1	1	-3	0.9	-0.7
CC(Sc1nc2ccccc2[nH]1)C(=O)O (stereo not given)	0%	3.9	-13	0	-11	-1.6	-2.3
COC(=O)c1ccc(NS(=O)(=O)c2ccc3c(c2)n(C)c(=O)n3C)cc1	.	1.1	-3	2	6	1.3	0.5
CC(NC(=O)Cn1nc(C(=O)O)c2ccccc2c1=O)c1ccccc1 (stereo not given)	10%	-5.6	1	15	5	1.0	5.0
Oc1c(CN2CCCCC2)cc(Br)c2cccnc12	?	6.4	.	1	-28	-2.4	?

Among those listed so far, two have fluorine.
SMILES	Vif A3G	LANA-H2A inh	ALR inh	Beta2AR agonist	Calb FLC	HNF4A DNA FP	RanGTP-Impb inh
COC(=O)C(C)NC(=O)CNS(=O)(=O)c1ccc(F)cc1 (stereo not given)	-10%	3.0	-6	4	-5	-1.8	-2.9
O=C(CSc1nccc(-c2cccs2)n1)Nc1ccc(F)c(Cl)c1	-4%	0.3	-1	1	-3	0.9	-0.7

Grouped by structure, the compounds so far containing a Cl atom (2)
SMILES	Vif A3G	LANA-H2A inh	ALR inh	Beta2AR agonist	Calb FLC	HNF4A DNA FP	RanGTP-Impb inh
O=C(CSc1ccc(Cl)cc1)NC(=O)NC1CCCC1	0%	.	.	-3	.	-0.6	.
O=C(CSc1nccc(-c2cccs2)n1)Nc1ccc(F)c(Cl)c1	-4%	0.3	-1	1	-3	0.9	-0.7

The listing picks up, starting 3 compounds before the break.
SMILES	Vif A3G	LANA-H2A inh	ALR inh	Beta2AR agonist	Calb FLC	HNF4A DNA FP	RanGTP-Impb inh
COC(=O)c1ccc(NS(=O)(=O)c2ccc3c(c2)n(C)c(=O)n3C)cc1	.	1.1	-3	2	6	1.3	0.5
CC(NC(=O)Cn1nc(C(=O)O)c2ccccc2c1=O)c1ccccc1 (stereo not given)	10%	-5.6	1	15	5	1.0	5.0
Oc1c(CN2CCCCC2)cc(Br)c2cccnc12	?	6.4	.	1	-28	-2.4	?
C[C@@H]1CN([C@@H](C)CO)C(=O)Cc2cc(NS(=O)(=O)c3ccccc3)ccc2O[C@H]1CN(C)Cc1ccncc1	.	-3.0	-3	0	.	0.4	.
CCC1Oc2ccc(C)cc2N(CC(=O)NCCc2ccc(OC)c(OC)c2)C1=O (stereo not given)	.	.	.	16	0	1.3	-3.9
O=C(Nc1cccc([N+](=O)[O-])c1)c1ccc2snnc2c1	.	-7.9	-14	-7	-9	1.0	-1.2
O=C(O)c1ccccc1NS(=O)(=O)c1ccc(NN=Cc2ccccc2F)c([N+](=O)[O-])c1	.	-0.3	11	3	.	-8.9	.
CS(=O)(=O)Nc1ccc(-c2cn3c(n2)SCC3)cc1	4%	2.6	1	8	-5	2.9	0.0
CCn1c(CC(=O)Nc2ccc(Cl)c(Cl)c2)nnc1SCc1ccc(C)cc1	.	-1.8	-25	-5	-15	-3.1	-1.0
CCOC(=O)c1cnc(-n2nc(C)cc2C)nc1Oc1ccc(C(=O)OC)cc1	-1%	-1.2	2	-10	4	2.3	?
Cc1c(Br)cnn1C(C)C(=O)N1CCN(c2ccc(F)cc2)CC1 (stereo not given)	.	-1.7	94*	-2	.	-1.1	.
C/C=C/C(=O)N1c2ccc(C)cc2C(C)=CC1(C)C	18%	2.7	.	-1	-1	2.6	-5.7
CCC(NC(=O)c1ccccc1NC(=O)c1ccc(C)cc1)C(=O)O (stereo not given)	3%	-1.0	-2	2	22	3.0	-2.2
COc1cccc(C2=NOC(C(=O)N3CCN(c4ccccc4)CC3)C2)c1OC (stereo not given)	1%	-2.5	-3	4	0	3.2	4.5
N#Cc1cc(-c2ccccc2)nc(Oc2ccc(Cl)cc2)n1	.	-0.5	-2	44*	-26	-1.7	-2.7
c1ccc(-c2cc3c(N4CCN(c5ccccc5)CC4)ncnc3s2)cc1	.	2.8	-3	7	9	-0.7	4.5
COc1ccc(C)cc1S(=O)(=O)Nc1cc2c3c(c1)CCN3C(=O)CC2	-6%	1.5	-5	2	-7	0.1	-2.7
NNC(=O)c1ccc(Oc2cc(Cl)cc(Cl)c2)o1	4%	6.4	4	6	-8	-3.2	-4.9

Some entries already given, limited to Calb FLC, Beta2AR agonist and RanGTP-Impb inh.
mol	Calb FLC	Beta2AR agonist	RanGTP-Impb inh
C/C=C/C(=O)N1c2ccc(C)cc2C(C)=CC1(C)C	-1	-1	-5.7
CCC(NC(=O)c1ccccc1NC(=O)c1ccc(C)cc1)C(=O)O (stereo not given)	22	2	-2.2
COc1cccc(C2=NOC(C(=O)N3CCN(c4ccccc4)CC3)C2)c1OC (stereo not given)	0	4	4.5

(more compounds)
SMILES	Vif A3G	LANA-H2A inh	ALR inh	Beta2AR agonist	Calb FLC	HNF4A DNA FP	RanGTP-Impb inh
CC(C)(C)NC(=O)COC(=O)c1cc(S(=O)(=O)N2CCCCC2)ccc1N1CCOCC1	82%	2.0	-5	-2	1	-0.6	1.9
O=C(CN1C(=O)/C(=C\c2cccc(F)c2)Oc2ccccc21)N1CCN(c2ccccn2)CC1	.	1.8	-12	4	-12	-0.6	0.9
COc1ccccc1C(=O)Nc1ccc2c(c1)nc(CN1CCN(C(C)=O)CC1)n2C	2%	1.2	-16	53*	14	4.1	.
O=[N+]([O-])c1ccccc1/C=N/N1CCN(c2ccc(Cl)cc2)CC1	0%	-7.9	-5	7	3	-0.2	4.2
COc1cccc(-c2cc(C(=O)NN3CCOCC3)c3ccccc3n2)c1	4%	4.2	-4	0	10	-0.7	0.8
CCCCN(C)C(=S)Nc1ccc2nc3n(c(=O)c2c1)CCCCC3	20%	-353	10	-3	-2	-2.5	-2.9
CC1=C(CC(=O)NCC(=O)NCC(=O)O)c2cc(F)ccc2/C1=C/c1ccc(S(C)=O)cc1 (stereo not given)	5%	2.6	-43	37	2	-2.4	5.8
C[C@@H](C(=O)NCCc1c[nH]c2ccccc12)[C@@H]1C[C@@]1(C)[C@@H](NC(=O)OCc1ccccc1)c1ccccc1	-6%	-4.4	4	-3	.	-9.0	.
CCOC(=O)CNC(=O)CSc1nc2cccnc2n1CC	.	2.1	-12	4	6	2.4	?
O=C(NCCCN1CCCC1)c1ccc(CS(=O)(=O)c2ccc(Br)cc2)o1	6%	2.1	-9	-5	8	12	-1.2
COc1ccc(NC(=O)CSc2nnc(-c3cc(C)[nH]n3)n2N)cc1	.	-2.1	-5	-1	-2	2.1	?
CC(=O)Nc1ccc(SC(C)C(=O)NC(N)=O)cc1 (stereo not given)	-2%	-4.6	99*	7	15	-0.3	-1.2
Cc1ccc2[nH]c(=O)cc(C(=O)OC(C)C)c2c1	21%	-2.4	-2	-2	25	0.0	0.4
O=C(NCCN1C(=O)S/C(=C\c2cccs2)C1=O)c1ccco1	15%	2.3	-7	1	15	-3.1	4.9
CCS(=O)c1ccccc1C(=O)OCC(=O)Nc1ccc2ccccc2c1 (stereo not given)	.	0.4	-3	-2	.	-3.0	.
CCOc1ccc([C@@H]2CC=C(C(=O)O)[C@H](c3ccc(Cl)cc3)N2S(=O)(=O)c2ccc(C)cc2)cc1	.	-0.8	11	-1	.	0.0	.
O=C(Nc1ccccc1)n1ccc(-c2ccc(-n3ccnc3)cc2)n1	-15%	3.2	-3	.	-17	.	-2.8
CCOC(=O)c1cccc(NC(=O)C2CCCN(c3nnc(N4CCCC4=O)s3)C2)c1 (stereo not given)	.	-2.4	-2	-3	-5	4.0	-0.1
COc1cc(OC)cc(C(=O)Nc2cccc(C(C)=O)c2)c1	-3%	2.2	-7	14	-4	-1.6	0.1
O=C(CN1C(=O)NC2(CCCc3ccccc32)C1=O)NCc1ccco1 (stereo not given)	1%	-7.2	-6	5	2	1.1	-5.0
CC(=O)N1N=C(c2ccc(C)c([N+](=O)[O-])c2)OC1(C)C	1%	-5.7	-6	-6	-5	1.6	2.2
[O-]/[N+](=C\c1ccncc1)c1ccc(Br)cc1	4%	0.8	29	6	-5	-1.5	-1.1
NS(=O)(=O)c1ccc(CCNC(=O)C2CCN(S(=O)(=O)c3cccc4cccnc34)CC2)cc1	.	-3.8	0	4	-19	-1.6	-3.2
CN(C)c1nc(/C=C(\C#N)C(N)=O)c(Cl)n1-c1ccc(F)cc1	4%	0.2	10	6	28	-0.9	-3.8
O=c1ccc(-c2ccc(S(=O)(=O)NCc3cccc(Br)c3)s2)n[nH]1	.	-1.2	-5	1	4	36*	-1.9
O=C(COC(=O)c1cc2ccccc2cc1O)Nc1ccccc1F	.	11	-12	5	.	2.3	.
O=C(/C=C/c1ccccc1)c1ccc(NC2=NCCCS2)cc1	-1%	3.0	-6	-2	.	5.4	.
O=[N+]([O-])c1cccc(S(=O)(=O)/N=C(/Nc2ccccc2)c2ccccc2)c1	-11%	-1.6	1	-2	.	3.0	.
O=C(Cn1nc(C(F)(F)F)c2c1CCCCC2)N1CCOCC1	?	-1.7	.	-2	-8	0.1	1.4
COc1ccccc1NS(=O)(=O)c1cccc(C(=O)N/N=C/c2ccc3c(c2)OCCO3)c1	-4%	1.5	-4	16	-8	4.3	-2.1

The order is random, and some 6.3% of all compounds hit somewhere here.
